Cruzain inh Det = qHTS Assay for Promiscuous and Specific Inhibitors of Cruzain (with detergent) | Cruzipain (Trypanosoma cruzi), P25779 | purified cruzain, Z-FR-AMC fluorescence, 0.01% Triton | Potency, µM, without a hit: max response, negative = inhibition, actives largely listed as inhibitors | actives 0.43% (n = 200,000);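 also: plate controls were neutral wells for no effect and buffer without enzyme for full effect; nearly all actives have a fitted effect of over 40% in size; top concentration of the series not given in the record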
Target sequence (P25779 123-467 limits assumed): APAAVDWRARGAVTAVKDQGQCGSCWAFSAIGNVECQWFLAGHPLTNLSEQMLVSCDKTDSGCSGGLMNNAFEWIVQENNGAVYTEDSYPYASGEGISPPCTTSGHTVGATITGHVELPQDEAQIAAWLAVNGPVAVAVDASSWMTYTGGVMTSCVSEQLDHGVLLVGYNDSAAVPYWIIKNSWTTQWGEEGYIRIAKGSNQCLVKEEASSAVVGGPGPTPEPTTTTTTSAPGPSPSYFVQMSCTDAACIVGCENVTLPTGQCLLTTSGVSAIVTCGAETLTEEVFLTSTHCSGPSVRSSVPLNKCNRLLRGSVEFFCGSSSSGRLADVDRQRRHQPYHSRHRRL
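Detergent-containing arm of a paired screen for aggregation-based inhibition: 0.01% Triton X-100 present. Cruzain at 1.5 nM cleaved 2 uM Z-FR-AMC at pH 5.5 with 5 mM DTT; AMC fluorescence gain over 60 s measured activity.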
Cruzain noTriton = qHTS Assay for Promiscuous and Specific Inhibitors of Cruzain (without detergent). actives 2.3% (n = 200,000). Cruzipain (Trypanosoma cruzi), P25779. Potency, µM, inactives show max response, negative = inhibition, actives largely listed as inhibitors. purified cruzain, Z-FR-AMC fluorescence, no detergent;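 also: plate controls were enzyme without inhibitor for no effect and buffer without enzyme for full effect; nearly all actives have a fitted effect of over 40% in size; top concentration of the series not given in the record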
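Purified cruzain at 1.5 nM, pre-incubated 15 min with compound at room temperature in 100 mM sodium acetate pH 5.5, 5 mM DTT, 0.00005% Triton X-100. Reaction started with 2 uM Z-FR-AMC; AMC fluorescence increase over 60 s gives rate.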
Marburg entry inh = qHTS for inhibitors of binding or entry into cells for Marburg Virus. Marburg virus pseudotyped entry inhibition, cell reporter; control for the full effect not named in the record; about a third of the inactives were read at about 46 µM. actives 1.8% (n = 300,000). Potency, µM (titrated, usually from 37.8 µM), for inactives: at the top dose activity change, negative = inhibition, most hits filed as inhibitors; active = well fitted inhibition curve with a large enough effect; inconclusive = small, poorly fitted or top-dose-only effect, or effect the other way; inactive = flat fitted curve, though single readings scatter; tested in HEK293 cells; about a fifth of its hits are not listed in these tables; also: % is scaled to controls: 0 for no effect and ±100 for the full control effect; luciferase read-out
Lassa entry inh = qHTS for Inhibitors of binding or entry into cells for Lassa Virus; AID 540256, 2011; Lassa virus pseudotype entry inhibition, cell reporter; control for the full effect not named in the record; Potency, µM (titrated, usually from 37.9 µM), inactives show top-dose activity change, negative = inhibition, hits mostly inhibitors; actives 1.2% (n = 300,000); active means well fitted inhibition curve with a large enough effect; inconclusive means small, poorly fitted or top-dose-only effect, or effect the other way; inactive means flat fitted curve, though single readings scatter; tested in HEK293 cells; also: % is scaled to controls: 0 for no effect and ±100 for the full control effect; nearly all actives have a fitted effect of over 50% in size; luciferase read-out
RE007 growth inh = qHTS Assay for Inhibitors of the HIV-1 protein Vpr; Potency, µM (doses to about 92.2 µM), without a hit: at the highest dose activity change, negative = less growth; S. pombe RE007 Vpr strain, BacTiter-Glo ATP luminescence, 24 h; control for the full effect not named in the record; AID 651644, 2012; actives 0.21% (n = 360,000); active = well fitted falling curve with a large enough effect; inconclusive = small, poorly fitted or top-dose-only effect; inactive = no such curve, though single readings can be large or run the other way;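 also: % is scaled to controls: 0 for no effect and ±100 for the full control effect; nearly all actives have a fitted effect of over 50% in size; the assay follows cell death caused by Vpr and the record does not say whether a fall means rescue or toxicity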
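Fission yeast RE007 carrying one integrated HIV-1 vpr copy, seeded at OD 0.01 in PMG+AL medium with 23 nL pinned compound. Grown 24 h at 30 degrees; viability read by BacTiter-Glo luminescence after 5 min.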
SARS PLP yeast = qHTS of Yeast-based Assay for SARS-CoV PLP | S. cerevisiae expressing SARS-CoV PLpro, growth rescue; control for the full effect not named in the record | Potency, µM (top dose mostly 32.9 µM), inactives show at the highest dose activity, positive = growth rescue | actives 0.19% (n = 330,000); active means well fitted rising curve with a large enough effect; inconclusive means small, poorly fitted or top-dose-only effect; inactive means no such curve, though single readings can be large or run the other way; also: 0% is about no effect; nearly all actives have a fitted effect of over 55% in size; growth read by luminescence after 48 h
2A StopGo = High Throughput Screening for Foot and Mouth Disease Virus Antivirals; Potency, µM (series often up to 57.9 µM), without a hit: at the top dose signal change, negative = less light; actives 1.2% (n = 410,000); human cells with a luciferase reporter of 2A StopGo recoding; control for the full effect not named in the record; AID 1159524, 2015; active = well fitted falling curve with a large enough effect; inconclusive = small, poorly fitted or top-dose-only effect; inactive = no such curve, though single readings can be large or run the other way; tested in HEK293T cells; also: % is scaled to controls: 0 for no effect and ±100 for the full control effect; nearly all actives have a fitted effect of over 45% in size; luciferase light after 4 h
NS1 function inh = qHTS Assay for Inhibitors of Influenza NS1 Protein Function | actives 0.4% (n = 270,000) | Potency, µM (top dose mostly 46.1 µM), for the others: at the highest dose activity, positive = more growth | S. cerevisiae slowed by influenza A NS1, growth recovery by OD600; active means well fitted rising curve with a large enough effect; inconclusive means small, poorly fitted or top-dose-only effect; inactive means no such curve, though single readings can be large or run the other way; also: nearly all actives have a fitted effect of over 50% in size
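Compounds were scored for reversing the slow growth caused by influenza A NS1 in S. cerevisiae, measured by optical density at 600 nm. Assay medium contained 2% galactose at pH 6.0; NS1-free yeast of the same strain were the positive control.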
* hit, by the source's call; ? = inconclusive; nt = no result given; & = joins results of further samples; [ ] = another dose, or the depositor's remark. Unless noted, calls follow the shape of the dose curve; as a rule, active = well fitted curve in the direction sought with a large enough effect; inconclusive = small, poorly fitted or top-dose-only effect, or another doubt; inactive = no such curve, though single readings can be large; an effect the other way counts as inactive or inconclusive. Potency is read from the fitted curve at half-maximal effect.

Order of results – Cruzain inh Det, Cruzain noTriton, Marburg entry inh, Lassa entry inh, RE007 growth inh, SARS PLP yeast, 2A StopGo, NS1 function inh
C(=N\n1cncn1)/c1ccc(N2CCOCC2)cc1
→ -11%, -5%, -6%, 23%, 13%, -4%, 18%, -2%
c1cnc2ccc(C(c3nnnn3C3CCCCC3)N3CCN(C4CCCCC4)CC3)cc2c1 (stereo not given)
→ nt, nt, nt, ?, -17%, nt, ?, nt
O=C(NC(=S)Nc1nc2ccccc2s1)c1ccco1
→ -1.7%, -8%, ?, ?, -21%, -6%, 23%, -3%
CCC1Oc2ccc(C)cc2N(CC(=O)NCc2ccc(F)cc2)C1=O (stereo not given)
→ 0.4%, -7%, nt, -6%[46.1 µM], nt, nt, 3%, nt
CC(=O)N1CSCC1C(=O)NNS(=O)(=O)c1ccccc1 (stereo not given)
→ nt, nt, 0%[14.2 µM], -3%, 9%, 0%, -9%, 0%
COc1ccc(S(=O)(=O)NCCSc2ccccc2)cc1OC
→ 2.7%, 5%, 0%, -14%, -21%, nt, 53%[activator], -21%
Cc1ccc(-c2ccc(S(=O)(=O)NCC3CCCO3)cc2)cc1 (stereo not given)
→ nt, nt, -24%, 3%, -3%, 2%, 13%, 0%
COc1ccc(-c2cn(/N=C/c3ccc(Cl)cc3Cl)c(N)n2)cc1
→ -21%, 7.9µM*, -44%, 1%, -10%, -4%, nt, -2%
COc1ccc(/C=N/Nc2ncc(C(F)(F)F)cc2Cl)cc1OC
→ -5.7%, 1%, 13µM*, 3%, -6%, -18%, -14%, 8%
CC1c2[nH]c3ccccc3c2CCN1C(=O)Nc1ccccc1 (stereo not given)
→ -5.3%, -1%, ?, ?, 11%, -49%, ?, -36%
Cc1noc2c1C(c1ccc(N(C)C)cc1)C1=C(CC(C)(C)CC1=O)N2 (stereo not given)
→ -4.2%, 11%, -4%, -18%[14.3 µM], 9%, 2%, -12%, -9%
CC(CN(C)C)CN1c2ccccc2Sc2ccccc21 (stereo not given)
→ -1.0%, -3%, nt, nt, -8%[18.4 µM], nt, ?, nt
CCOc1ccc(-n2c(-c3ccccc3)c(C)n3c4c(=O)n(C)c(=O)n(C)c4nc23)cc1
→ 2.1%, 14%, ?, 16%[46.1 µM], nt, nt, -18%, nt
CC1(C(=O)NC2CCCCC2)Cc2ccccc2C(=O)N1Cc1ccc(F)cc1 (stereo not given)
→ 1.4%, 16%, ?, nt, nt, nt, -3%, nt
CCCCN(C(=O)C(C)Oc1ccc(Br)cc1)c1c(N)n(CC(C)C)c(=O)[nH]c1=O (stereo not given)
→ nt, nt, 14%, 17%, -12%, 0%, -17%, nt
O=C(Nc1ccc2c(c1)N(C1CCCC1)C(=O)c1ccccc1S2)c1cccc(F)c1
→ -0.6%, 7%, nt, nt, nt, nt, ?, nt
COC(=O)c1c(NC(=O)CCl)sc(C(=O)N2CCOCC2)c1C
→ nt, nt, ?, ?, 10%, 1%, -22%, 9%
O=C(Nc1c(C(=O)N2CCN(c3ccccn3)CC2)oc2ccccc12)c1cccc([N+](=O)[O-])c1
→ nt, nt, 29%[46.1 µM], -28%[46.1 µM], -5%, -9%, 44%[activator], 7%
COc1ccc(Cn2ccnc2SCC(=O)Nc2ccc3c(c2)OCCO3)cc1
→ -0.8%, -9%, nt, -14%[46.1 µM], nt, nt, 27%, nt
CC1(C)Cc2c(cnn2-c2ccc(F)cc2)C(NC(=O)CN2CCCC2=O)C1 (stereo not given)
→ nt, nt, nt, nt, -1%, -1%, 14%, -2%
O=C(O)CCSc1nc2ccccc2c(=O)[nH]1
→ -0.8%, -8%, 23%, -5%, -6%, 15%, 9%, 0%
O=C(c1ccc(=O)[nH]n1)N1CCN(S(=O)(=O)c2ccc3ccccc3c2)CC1
→ nt, nt, -17%[46.1 µM], 29%, -11%, -8%, ?, nt
Cc1ccc(O)c(Nc2nc(-c3ccccc3)nc3ccccc23)c1
→ nt, nt, ?, -6%, 84%, -3%, -16%, -2%
O=C(NC1CCCCC1)C(c1ccccn1)N(C(=O)c1csnn1)C1CC1 (stereo not given)
→ nt, nt, 6%[46.1 µM], 10%, 38%, 0%, 1%, 8%
Cc1cc(C(=O)N2CCN(Cc3ccccc3)CC2)ccc1[N+](=O)[O-]
→ nt, nt, nt, nt, -13%, 1%, -8%, -1%
O=C(CSc1nnc(COc2ccc(F)cc2)o1)N1c2ccccc2CCc2ccccc21
→ 0.3%, -30%, -27%, 34%[14.3 µM], 0%, -7%, ?, ?
Cc1ccc(NS(=O)(=O)c2ccc(Cl)nc2)c(C)c1
→ nt, nt, 2%, 5%, 0%, -3%, 1%, nt
CN(C(=O)COC(=O)CCCN1C(=O)c2cccc3cccc(c23)C1=O)C1CCS(=O)(=O)C1 (stereo not given)
→ nt, nt, 12%[46.1 µM], 4%, -14%, 4%, -19%, nt
Cc1ccc(C)c(NC(=O)CCC(=O)NNC(=O)C(c2ccccc2)c2ccccc2)c1
→ 3.7%, ?, 6%, 4%, 1%, -1%, 9%, 18%
O=C1CC(/C=C/c2ccc([N+](=O)[O-])cc2)=Nc2ccccc2N1
→ nt, nt, nt, nt, 1%, -1%, -6%, ?
Cc1ccc(OCC(=O)Nc2cc3nn(-c4ccccc4)nc3cc2C)cc1
→ 0.0%, -2%, nt, 0%[46.1 µM], nt, nt, -4%, nt
Cn1cnnc1SCC(=O)N/N=C/c1ccc(OCC(N)=O)cc1
→ nt, nt, 1%, 4%, 5%, 3%, -11%, 2%
COc1ccc(NC(=O)C2CCCN(S(=O)(=O)c3c(C)[nH]c(=O)[nH]c3=O)C2)c(OC)c1 (stereo not given)
→ 0.8%, 2%, -13%[46.1 µM], 28%[46.1 µM], nt, nt, 0%, nt
CCC(=O)N1N=C(c2ccccc2)CC1c1ccc([N+](=O)[O-])cc1 (stereo not given)
→ -8.6%, -7%, 2%, 9%, -13%, 16%, -18%, -6%
COC(=O)[C@@H]1C[C@@]2(O)[C@@H](O)[C@@H](O)[C@@H](O)C[C@H]2N1CC(c1ccccc1)c1ccccc1
→ -0.4%, 0%, nt, nt, 3%, 2%, 4%, 5%
O=C(NCCCN1CCC(Cc2ccccc2)CC1)c1ccc2nc(N3CCOCC3)sc2c1
→ nt, nt, nt, nt, 0%, 0%, -25%, -3%
CCc1nnc(NS(=O)(=O)c2ccc(NC(=O)c3cccc(OC)c3)cc2)s1
→ nt, nt, nt, nt, -4%, 0%, 60%, 22%
COc1ccc(N2CCN(C(=O)Cn3nnc(-c4ccccc4N)n3)CC2)cc1
→ nt, nt, 4%[46.1 µM], ?, 3%, -5%, -18%, nt
N#Cc1ccccc1S(=O)(=O)Nc1ccc2c(c1)C(=O)OC2
→ nt, nt, nt, nt, -13%, -2%, 2%, -6%
COc1ccc(NC(C)=O)cc1NC(=O)CN1CCN(c2ccccn2)CC1
→ 4.6%, -4%, 10%, 5%, ?, 1%, -14%, 1%
COc1ccccc1OCc1ccc(C(=O)NCCN(C)C)o1
→ 5.4%, 5%, -2%, 5%, 3%, 6%, -1%, 4%
O=c1c2[nH]c3ccc(F)cc3c2ncn1CCC1=CCCCC1
→ nt, nt, -3%[46.1 µM], 10%, 1%, 0%, 0%, 0%
CN(C)C(=O)C(=O)c1cccn1-c1ccccc1C#N
→ 2.0%, 5%, 5%[46.1 µM], 10%, 1%, 6%, 8%, 0%
O=c1c2c3n(c(=S)nc2[nH]n1-c1ccccc1)CCCCC3
→ -1.9%, 1%, 7%, -8%, -3%, 4%, 3%, -110%
Cc1cccc(-c2nc(S(=O)(=O)c3ccccc3)c(N3CCN(c4ccccc4)CC3)o2)c1
→ -0.2%, -30%, 0%[46.1 µM], 2%[46.1 µM], nt, nt, -14%, nt
O=C(Nc1ccccn1)C1CCCN(c2ncnc3c2nc2n3CCCCC2)C1 (stereo not given)
→ nt, nt, -4%[46.1 µM], 15%[46.1 µM], -15%, 0%, -19%, -27%
c1coc(-c2nc(-c3ccncc3)no2)c1
→ -5.3%, -6%, 7%, ?, -28%, -5%, 0%, 5%
COc1ccccc1NC(=O)C1CCCN(c2nc(C)cc(C)n2)C1 (stereo not given)
→ -2.7%, 9%, -2%[46.1 µM], -2%, -7%, 13%, -25%, -4%
CCCCCCCCCSc1n[nH]c(N)n1
→ 0.8%, 9%, -5%, -3%, 3%, -33%, 9%, -155%
CCOc1ccc(NC(=O)N2CCC(n3nnc4cc(C)ccc43)CC2)cc1
→ -1.0%, -4%, -6%, -9%, -5%, -7%, 9%, -1%
Cc1c2cnn(-c3ccccc3)c(=O)c2c(C)n1CC(=O)NCc1ccccc1
→ -2.5%, 5%, -15%[46.1 µM], -3%[46.1 µM], nt, nt, -19%, nt
CCn1c(CNC(=O)C(C)(C)C)nc2ccccc21
→ 4.1%, 10%, nt, nt, -8%, 2%, -23%, -5%
COc1cccc(NC(=O)CSc2nc3ccccc3nc2N2CCOCC2)c1
→ -11%, ?, ?, 7.1µM*, 1%, -1%, -19%&8%, -28%
CC(C)(C)NC(=O)C1CC1(c1ccccc1)c1ccccc1 (stereo not given)
→ nt, nt, nt, nt, 2%, 1%, ?, 3%
CC(C)CCNC(=O)C(c1ccco1)N(Cc1cccs1)C(=O)Cn1nnc2ccccc21 (stereo not given)
→ -1.1%, 7%, -15%, ?, 1%, -4%, 17%, 5%
CCOc1ccc(N2C(=O)/C(=C/c3ccco3)N(C)C2=S)cc1
→ -4.9%, -5%, 4%, -3%, 3%, 3%, -28%, 19%
COc1cc(/C=N/NC(=O)Cc2ccccc2)ccc1Oc1ccc([N+](=O)[O-])cc1[N+](=O)[O-]
→ -9.2%, ?, 2%, 9%, 6%, -21%, -11%, 5%
CCOc1ccc(C(=S)N2CCCC2)cc1OCC
→ nt, nt, nt, nt, 4%, -1%, -1%, 15%
Cn1c(N=Nc2ccc(N3CCOCC3)cc2)[n+](C)c2ccccc21
→ nt, nt, 3%, -8%, 18µM*, -2%, 17%, -1%

Screening results from PubChem BioAssay.
